Vif TR-FRET: inhibitors of Vif binding to APOBEC3G peptide, primary screen, biochemical, TR-FRET, GST-Vif 1-94, biotin-A3G peptide, dose response retest (AID 1117319) | TR-FRET GST-Vif / biotin-A3G peptide binding; higher % means a stronger effect; test concentration not given here; strong numbers were not always called active | inhibition, %, or IC50 in µM where a hit was titrated | 260,000 compounds, 0.57% hits;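 active means above the screen mean plus three standard deviations and confirmed in dose response; inconclusive means results disagree or hit not tested in dose response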;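 further: Vif residues 1-94 fused to GST binding biotinylated APOBEC3G peptide 110-148; 0% = full assay without inhibitor and 100% = GST in place of GST-Vif; retest series ran down from 100 µM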
Beta2AR agonist: agonists of human beta-2 adrenergic receptor inducing internalization | P07550 | Am2.2-beta2AR cells, FAP receptor internalization, flow cytometry; reference of the scale not given here | response, % (concentration not given with the values) | 340,000 compounds, 0.43% hits | AID 504454;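 active means response above a set limit, near 3 SD of response in nonfluorescent compounds, cut at about 42% in these data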;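 further: stock transfer was 100 nL into about 11 µL; a reference agonist was the positive control; negative values mostly stem from fluorescent compounds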
HNF4A DNA FP: change in binding of human HNF4 alpha to DNA | P41235 | HNF4a-FITC DNA binding, fluorescence polarization, 1 h | activity change, % at 10 µM | 360,000 compounds, 0.3% hits; in the data active means activity change above about 30%, passing the limit was not always enough;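 further: controls were the assay level and a saturating level of protein; the project sought stronger binding though the title names inhibitors; some compounds called inactive have numbers as strong as hits; positive values seem to mean higher polarization but the record does not say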
LANA-H2B inh: blocks KSHV LANA binding to histone H2A/H2B; Q9QR71; cell-free LANA-H2A/H2B peptide, fluorescence polarization; inhibition, % (no concentration beside the values); 320,000 compounds, 0.6% hits; AID 2629; in the data active means inhibition mostly above about 10%, no sharp cut-off; inactive means mostly below about 6.7%;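 further: stock transfer was 7.5 nL into about 10 µL; 0% = median of vehicle wells and 100% = median of positive control wells; one replicate is shown; the record names a cut of 25% in any replicate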
Target sequence (Q9QR71 whole entry, looked up): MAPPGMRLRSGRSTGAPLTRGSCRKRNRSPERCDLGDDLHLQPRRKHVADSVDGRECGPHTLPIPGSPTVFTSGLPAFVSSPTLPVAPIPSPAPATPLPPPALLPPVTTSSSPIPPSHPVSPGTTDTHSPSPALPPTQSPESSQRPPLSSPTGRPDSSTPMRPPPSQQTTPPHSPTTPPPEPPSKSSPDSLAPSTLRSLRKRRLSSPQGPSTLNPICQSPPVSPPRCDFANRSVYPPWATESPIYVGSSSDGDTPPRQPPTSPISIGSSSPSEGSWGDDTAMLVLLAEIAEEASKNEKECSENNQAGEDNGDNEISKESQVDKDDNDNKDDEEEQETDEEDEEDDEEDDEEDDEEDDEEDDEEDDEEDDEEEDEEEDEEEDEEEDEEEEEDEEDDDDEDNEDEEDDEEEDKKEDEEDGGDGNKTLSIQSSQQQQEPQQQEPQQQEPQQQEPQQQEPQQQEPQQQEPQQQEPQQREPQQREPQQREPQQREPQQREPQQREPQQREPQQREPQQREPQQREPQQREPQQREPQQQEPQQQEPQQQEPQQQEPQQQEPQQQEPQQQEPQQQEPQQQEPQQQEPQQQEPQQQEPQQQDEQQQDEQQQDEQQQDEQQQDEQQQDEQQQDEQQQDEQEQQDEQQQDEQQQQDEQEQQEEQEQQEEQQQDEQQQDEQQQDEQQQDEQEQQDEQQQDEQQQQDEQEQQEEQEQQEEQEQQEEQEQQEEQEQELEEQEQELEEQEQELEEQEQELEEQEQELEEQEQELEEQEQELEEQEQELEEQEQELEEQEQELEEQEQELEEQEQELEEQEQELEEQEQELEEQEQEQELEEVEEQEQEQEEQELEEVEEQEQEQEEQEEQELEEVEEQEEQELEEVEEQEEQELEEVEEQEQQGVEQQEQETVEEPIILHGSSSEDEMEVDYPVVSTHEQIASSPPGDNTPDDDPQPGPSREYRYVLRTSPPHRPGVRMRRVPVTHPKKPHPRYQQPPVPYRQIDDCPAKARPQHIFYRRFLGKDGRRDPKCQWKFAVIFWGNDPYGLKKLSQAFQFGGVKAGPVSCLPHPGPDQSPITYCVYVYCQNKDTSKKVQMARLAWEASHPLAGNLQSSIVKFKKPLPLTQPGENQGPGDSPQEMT
RanGTP-Imp inh: disruptors of Ran-importin-beta complex formation – biochemical, FRET, CFP-Ran, YFP-importin-beta, homogeneous, primary screen; cell-free CFP-Ran/YFP-importin-beta FRET ratio; inhibition, % (concentration not given with the values); 300,000 compounds, 1.1% hits; AID 2216;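 active means most replicates above 15%; inconclusive means exactly half above 15%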;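 further: 0% = DMSO wells and 100% = Ran loaded with GDP instead of GTP; wells of about 40 µL received 100 nL stock; the first replicate is given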
ALR H2O2 inh: blocks human ALR sulfhydryl oxidase activity. purified ALR, DTT oxidation, H2O2 HRP-luminol luminescence. inhibition, % (concentration not given with the values). 290,000 compounds, 3.8% hits. AID 485317;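 active means mean and each replicate at 75% or more; inconclusive means only one of the two met; inactive means neither met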;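 further: stock transfer was 7.5 nL into about 7.5 µL; 0% = neutral wells and 100% = wells with inactivated enzyme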
Calb FLC: affects C. albicans growth with fluconazole. growth inhibition, % (test concentration not listed). C. albicans CaCi-2 (fluconazole-resistant clinical isolate) + fluconazole, Alamar Blue growth, 48 h. 300,000 compounds, 0.57% hits. AID 1979;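 active means most replicates above 75%; inconclusive means exactly half above 75%; inactive means most below 75%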;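 further: all wells also contain fluconazole at 8 µg/ml as a sub-toxic cotreatment; 0% = median of DMSO wells and 100% = median of geldanamycin control wells; wells of about 8 µL received 7.5 nL stock; the first replicate is given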
Active calls of the source: *; ? = inconclusive; nt = no result given.

SMILES | Vif TR-FRET | Beta2AR agonist | HNF4A DNA FP | LANA-H2B inh | RanGTP-Imp inh | ALR H2O2 inh | Calb FLC
O=C(Nc1nccs1)c1ccccc1N=Cc1ccccc1 | 27.8% | 6.4 | -1.6 | 0.4 | 6.5 | -0.8 | -3.5
O=C(CSc1nc2sc3c(c2c(=O)n1-c1ccccc1)CCCC3)N/N=C/c1ccc(C(=O)O)cc1 | nt | -11.2 | 1.1 | 6.9 | 7.0 | 34.4 | 6.9
COC(=O)c1ccc(-n2c(C)cc(C(=O)COC(=O)CNS(=O)(=O)c3ccc(C)cc3)c2C)cc1 | -4.9% | 1.2 | -2.3 | -2.4 | 1.6 | 0.9 | 9.0
C/C(=N\NC(=O)CSCc1ccccc1Cl)c1cccc(NC(=O)c2ccccc2)c1 | -0.2% | -0.3 | -0.7 | -0.5 | 3.9 | nt | 2.9
CNC(=O)c1c(NC(=O)C2=COCCO2)sc(C)c1C | -3.1% | 5.5 | 5.7 | nt | 3.0 | nt | 6.5
CCN(Cc1ccccc1)C(=O)CCc1nc(-c2ccc(C)cc2)no1 | 23.5% | -13.6 | 1.4 | -3.4 | -1.1 | -7.5 | 5.6
Cc1ccccc1C1C(C#N)=C2NC(=O)c3c(sc4c3CCCCC4)N2C2=C1C(=O)CC(C)(C)C2 (centres undefined) | 10.6% | nt | nt | 1.7 | -2.8 | -13.5 | ?
Cc1ccc(C(=O)Nc2ccccc2C(=O)O)cc1S(=O)(=O)NC1CCCCC1 | nt | -0.5 | -3.0 | -4.8 | -4.6 | 5.5 | 1.3
COc1ccc(/C=C/C(=O)C2C(=O)C=C(C)OC2=O)cc1O (centres undefined) | ? | 21.9 | 0.0 | -3.4 | -1.3 | ? | 4.5
Cc1ccc(-n2nnc(-c3cc4ccccc4nc3Cl)n2)cc1 | nt | -3.8 | -0.8 | -2.8 | 0.1 | 15.7 | -22.1
O=C(CSc1ccc(Br)cc1)NCC(c1ccco1)N1CCCCC1 (centres undefined) | -1.0% | -9.7 | 2.0 | -4.3 | 3.6 | -0.5 | -12.0
Cc1ccc(CNC(=O)CCC(=O)n2ncc3cc(C)ccc32)cc1 | nt | 0.7 | -1.0 | 4.2 | 4.4 | 3.2 | 6.7
C=CCOc1ccc(/C=N/Nc2ccccn2)cc1OC | nt | 9.8 | -1.4 | 0.8 | 4.7 | 15.2 | -0.1
COc1ccc2c(C)cc(SCC(=O)NC3CCCC3)nc2c1 | nt | 3.2 | -2.5 | -4.7 | nt | nt | nt
CC(=O)c1ccc(N/N=C(/C(N)=O)C2=NC(C)(C)Cc3ccccc32)cc1 | -8.3% | 10.2 | -3.4 | 0.3 | 8.7 | -4.4 | 11.3

A run of entries from further up, for reference:
SMILES | Vif TR-FRET | Beta2AR agonist | HNF4A DNA FP | LANA-H2B inh | RanGTP-Imp inh | ALR H2O2 inh | Calb FLC
O=C(Nc1nccs1)c1ccccc1N=Cc1ccccc1 | 27.8% | 6.4 | -1.6 | 0.4 | 6.5 | -0.8 | -3.5
O=C(CSc1nc2sc3c(c2c(=O)n1-c1ccccc1)CCCC3)N/N=C/c1ccc(C(=O)O)cc1 | nt | -11.2 | 1.1 | 6.9 | 7.0 | 34.4 | 6.9

Other structures.
SMILES | Vif TR-FRET | Beta2AR agonist | HNF4A DNA FP | LANA-H2B inh | RanGTP-Imp inh | ALR H2O2 inh | Calb FLC
Cc1cc(C)cc(CSc2nnc(C)c(=O)[nH]2)c1 | -0.6% | 15.7 | 1.9 | -0.4 | -1.7 | 5.3 | 15.0
CC1CCCCN1C(=O)COC(=O)c1ccc2c(c1)C(=O)N(Cc1ccco1)C2=O (centres undefined) | 9.8% | 4.3 | -1.2 | -0.4 | nt | -3.2 | nt
COc1cc(NC(=O)c2noc3c2CCCC3)c(OC)cc1Cl | 11.1% | -15.8 | 3.5 | 1.9 | 4.5 | -13.4 | 3.4
CC(C)NC(=O)COc1coc(CN2CCN(c3ccccc3F)CC2)cc1=O | nt | -2.3 | -0.3 | -5.4 | 6.9 | nt | 13.4
CCN(CC)C(=O)CSc1nnc(-c2cc(OC)cc(OC)c2)o1 | -2.7% | 2.3 | 2.9 | -2.8 | 5.2 | 5.8 | 34.1
CC(=O)Cc1nsc(NC(=O)c2ccc(-c3ccc(F)cc3)o2)n1 | 10.6% | 0.4 | 5.8 | 3.5 | 1.6 | 15.7 | 38.6
Cc1c(NC(=O)c2ccc3c(c2)OCO3)c(=O)n(-c2ccccc2)n1C | ? | 2.8 | -4.7 | 3.2 | 2.7 | -5.0 | -7.2
CC(C)CNC(=O)C(=O)NC1CCCC1 | -4.0% | -6.7 | 0.3 | -3.7 | 1.3 | -29.9 | -5.5
Cc1ncc([N+](=O)[O-])n1CC(=O)Nc1ccc2c(c1)OCO2 | nt | 2.3 | -2.1 | -0.5 | -0.6 | 1.1 | 1.4
O=C(c1ccccc1)c1ccc(OC(=O)N2CCOCC2)cc1 | 75.8% | -2.6 | 2.4 | -0.4 | 3.0 | 1.7 | -14.7
O=C(Nc1ccncc1)Nc1cccc(Cl)c1Cl | nt | -2.6 | -1.4 | 1.4 | 3.6 | 12.4 | ?
O=C(CN1C(=O)c2ccccc2S1(=O)=O)N1CCOCC1 | -0.5% | 6.7 | -1.4 | 2.3 | -0.5 | -3.0 | 4.7
N#C/C(=C/c1ccc(Cl)cc1)NC(=O)c1ccccc1 | -7.3% | -4.1 | 0.6 | 4.5 | 1.1 | -9.0 | 8.0
CN1/C(=C\C(=O)CSc2ncn[nH]2)C(C)(C)c2ccccc21 | nt | 5.5 | 0.2 | 0.8 | -0.8 | -7.0 | -10.2
Oc1ccc(-c2nccc(-c3ccc(Cl)cc3Cl)n2)cc1 | 1.4% | -3.7 | -1.7 | -1.0 | 0.0 | 21.9 | 31.1
COc1ccc(N2CCN(CCN3C(=O)c4ccccc4C3=O)CC2)cc1 | nt | 4.5 | 3.6 | 0.8 | 0.9 | 11.0 | 4.5
Cc1ccc(N2C(=O)N(CC(=O)Nc3ccccc3C)C(=O)C2C)cc1 (centres undefined) | 4.7% | -4.5 | 1.5 | 4.6 | -2.0 | -5.0 | -6.9
Cn1cc(CNCc2cn[nH]c2-c2ccc(F)cc2)c(-c2ccc3c(c2)OCCO3)n1 | 2.7% | -3.0 | -3.0 | -0.7 | nt | -2.2 | nt
COc1ccc(C(=O)CC(=O)C(=O)Nc2cc([N+](=O)[O-])ccc2OC)cc1 | -14.0% | 8.2 | 4.0 | -1.6 | -0.7 | -5.5 | -3.4
Cc1cc(C)c(NC(=O)CN2C(=O)NC(Cc3ccccc3)C2=O)c(C)c1 (centres undefined) | 9.2% | -9.1 | -0.5 | 2.2 | 1.4 | -6.9 | 10.6
CCOC(=O)CC(NC(=O)CCc1c(C)nc2ncnn2c1C)c1ccc(OC(C)C)cc1 (centres undefined) | nt | 8.1 | 3.5 | -2.9 | 4.0 | -0.6 | 4.3
CC(C)OC(=O)CSc1nc2ccccc2s1 | 3.6% | -2.2 | 2.0 | 3.7 | nt | -3.9 | nt
Cc1cccc(NC(=O)C2CCCN(C(=O)NCc3ccccc3)C2)c1C (centres undefined) | 14.6% | 10.8 | -2.3 | -0.6 | 1.5 | 0.3 | -2.9
c1coc(CNc2ncnc3sc4c(c23)CCCCC4)c1 | 9.8% | -4.7 | 0.2 | 1.7 | -3.9 | 25.8 | -5.8
CCc1nnc(NS(=O)(=O)c2ccc(N/C=C/C(=O)c3ccc(OC)cc3)cc2)s1 | nt | 27.9 | -0.1 | 1.4 | 3.4 | 20.6 | 3.3
CCN(CC)S(=O)(=O)c1cccc(NC2=NCCCCC2)c1 | 8.2% | 9.0 | 5.5 | 1.8 | 0.7 | 1.4 | -2.1
O=CN1CCN(C(C(=O)NC2CCCCC2)c2ccc(Cl)cc2)CC1 (centres undefined) | nt | -3.6 | 0.7 | 3.7 | 2.4 | nt | 12.6
Cc1ccc(S(=O)(=O)N2CCCCC2)cc1C(=O)Nc1ccc(S(=O)(=O)Nc2ncccn2)cc1 | ? | -3.8 | -10.9 | -0.8 | 3.2 | -15.2 | 13.8
O=C(NCCCN1CCCC1=O)c1ccc(OCc2ccccc2)cc1 | -6.0% | -1.2 | -1.7 | 0.9 | -1.0 | -15.1 | -0.8
O=C(Cc1csc(-c2ccc(F)cc2)n1)Nc1cccc(S(=O)(=O)NC2=NCCC2)c1 | 10.5% | 3.3 | 5.6 | 8.7 | nt | -4.9 | nt
c1ccc(-c2nnc3n2N=C(c2ccc4c(c2)OCO4)CS3)nc1 | 0.5% | -6.8 | 3.7 | 9.4 | -4.1 | nt | 42.8
Cc1nn(Cc2ccccc2)c(C)c1NC(=O)c1noc2c1CCc1ccccc1-2 | -3.1% | -9.5 | 1.1 | -3.4 | 1.0 | nt | 28.1
O=C(CC(=O)c1ccccc1)Nc1cccnc1 | nt | -3.1 | -1.6 | 1.8 | -1.9 | 0.7 | -6.1
CCOC(=O)c1cc(-c2ccccc2C)nn1CC1CC(c2ccc(OC)cc2)=NO1 (centres undefined) | nt | 9.8 | -1.3 | -7.0 | nt | -2.4 | nt
Cc1cc(C)c(NC(=O)CSc2nc3c(c(=O)n2C)SC(C)C3)c(C)c1 (centres undefined) | 3.6% | -2.3 | 1.0 | 3.0 | 2.6 | -8.6 | 3.3
Cc1cccc(C(=O)NCc2ccc(S(N)(=O)=O)cc2)c1[N+](=O)[O-] | nt | 2.7 | 3.3 | 0.3 | 4.9 | -4.3 | -15.9
CCCCNc1c(-c2ccc(Sc3ccc(OC)cc3)cc2)nc2cc(C)ccn12 | nt | 11.6 | -1.5 | 2.9 | nt | -6.9 | nt
CCCCc1c(C)nc2ccc(C)cc2c1SCCC(=O)O | -6.2% | 8.5 | -0.7 | 7.3 | -2.2 | 4.2 | ?
N#CC1=C(N)OC2=C(C(=O)CCC2)[C@]12C(=O)N(CC(N)=O)c1ccccc12 | -3.3% | -6.6 | 0.5 | 1.8 | -2.9 | -2.0 | 0.1
C=CCC1(O)CC(c2ccco2)NC(c2ccco2)C1CCC (centres undefined) | 16.3% | 6.1 | 1.0 | 3.4 | 1.6 | 7.9 | 31.4
COc1ccccc1NC(=O)CN1C(=O)NC(C)(C)C1=O | 6.5% | -6.0 | -1.1 | -6.5 | 4.8 | 0.3 | -8.2
CN1CCN(C(=O)CN(C)S(=O)(=O)c2cc(Cl)ccc2Cl)CC1 | nt | -8.9 | -1.4 | -0.5 | 1.9 | -1.6 | -2.4
COC(=O)c1cc2n(n1)CCN(Cc1ccc(C)cc1)C2=O | 21.1% | 28.6 | -1.5 | -1.3 | 6.3 | 7.6 | -1.3
Cc1cccc(N2CCN(C(=O)c3cccc(N4C(=O)C5CC=CC(C)C5C4=O)c3)CC2)c1C (centres undefined) | 7.4% | -5.3 | -2.7 | 7.0 | 1.1 | -18.3 | -6.1
Cc1onc(-c2c(Cl)cccc2Cl)c1C(=O)NCC1CCCO1 (centres undefined) | -5.2% | -3.2 | 3.2 | 2.6 | -2.8 | -4.5 | 3.8
COc1ccc(-n2c(=O)cc(N3CCCCCC3)[nH]c2=O)cc1 | 18.8% | -3.6 | 3.0 | 1.2 | -0.3 | -5.1 | -7.1
CCN(CC)C(=O)C(Sc1ccccc1)c1ccccc1 (centres undefined) | 9.2% | 7.1 | -1.1 | -3.1 | 0.5 | -7.7 | -32.7
Cc1cccc(-n2c3nc(=O)[nH]c(=O)c-3cc3c(C)nn(-c4ccccc4)c32)c1C | nt | 1.8 | 0.1 | -2.7 | 2.9 | -0.5 | 3.3
O=C(O)c1ccc(N/N=C/c2cc3ccccc3nc2Cl)cc1 | 2.4% | 2.6 | 10.4 | 3.8 | 12.9 | nt | 2.6
Cc1onc(-c2ccccc2)c1C(=O)OCC(=O)Nc1cc(S(=O)(=O)N2CCOCC2)ccc1Cl | 0.7% | 2.1 | 0.0 | 8.3 | 2.6 | -5.9 | -19.4

From PubChem
